RN4220 kill: kills Staphylococcus aureus RN4220; hit rate 0.33% among 330,000; AID 1259311; inhibition, % (no concentration beside the values); S. aureus RN4220 growth, OD600, 16 h;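 active means z-score of -3 or lower and OD600 up to 0.18 on both plates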;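 further: plate controls were untreated cells for no effect and reference antibiotic for full effect; stock transfer was 100 nL into about 80 µL; one replicate is shown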
Mtb hypoxia rep: Mtb hypoxia fluorescent reporter inhibition | AID 1159583 | hit rate 0.1% among 300,000 | M. tuberculosis hypoxia-regulated fluorescent reporter, fluorescence | fluorescence inhibition, % (concentration not given with the values);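 active means 35 to 45% if threefold the growth effect, above 45% if 1.5-fold the growth effect; inactive means the rest, general growth blockers included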;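 further: wells of about 50 µL received 100 nL stock; 0% = vehicle wells and 100% = reference inhibitor wells; whole bacteria with a GFP reporter of the hypoxia response; strong numbers were not always called active; many hits fall short of the cut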
Autofluor counter: flagged as autofluorescent in microsphere protease counterscreen | hit rate 3.1% among 360,000 | AID 624483 | fluorescence intensity (concentration not given with the values) | compound autofluorescence counterscreen, microsphere flow cytometry; stronger effect = higher value;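 active means at least 3 SD above the mean of all compounds, about 16000 in these data; inconclusive means too few beads counted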;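 further: 100 nL of 1 mM stock went into each well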
PrP 5UTR inh: inhibition of PrP 5' UTR reporter expression | AID 488862 | inhibition, % (test concentration not listed) | cell-based PrP 5' UTR mRNA reporter, plate reader | hit rate 0.35% among 340,000;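 active means every replicate at 50% or more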;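 further: 0 = median of the neutral control wells; tested in H4 reporter cells; numbers are from one replicate; inactives centre near -14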
BJeLR viability: kills HRASV12-expressing BJeLR cells; BJeLR (HRASV12) viability, CellTiter-Glo ATP luminescence, 48 h; reference of the scale not given here; inhibition, % (test concentration not listed); hit rate 0.17% among 300,000; AID 1554;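 active means replicate mean above 50%; inconclusive means above 50% but judged a plate artefact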;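 further: 50 nL library stock added to about 25 µL; numbers are from one replicate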
ugtP null kill: compounds lethal to S. aureus RN4220 ugtP deletion mutant | OD600 growth, 16 h; some inactives read as strong as hits | growth inhibition, % (no concentration beside the values) | hit rate 0.54% among 330,000;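 active means z-score under -3 and OD600 up to 0.15 on both plates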;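 further: plate controls were untreated wells for no effect and antibiotic for full effect; wells of about 80 µL received 100 nL stock; the first replicate is given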
Mtb hypoxia rep growth: also measured in Mtb hypoxia rep; calls as there; growth inhibition, %; measured here: M. tuberculosis growth (absorbance);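 0% = vehicle and 100% = reference antibiotic; read after six days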
* hit, by the source's call; ? = inconclusive; · = no result given. No enrichment for hits; about 4% have a hit in one of these screens.

SMILES	RN4220 kill	Mtb hypoxia rep	Mtb hypoxia rep growth	Autofluor counter	PrP 5UTR inh	BJeLR viability	ugtP null kill
O=C(CN1CCN(CC(=O)Nc2ccccc2F)CC1)Nc1cccc(F)c1	3.2	11.4	7.0	2989	8.8	8.0	10.4
Cc1cc(NC(=NC2CC2)c2ccccc2)n(-c2ccccc2)n1	-0.6	-7.5	-5.0	5494	-11.8	2.5	-4.3
COc1ccc(Br)cc1CNCC1CCCO1 (stereo not given)	1.3	-1.3	-1.5	3492	-19.6	-9.1	2.3
CCOc1ccc(C(=S)N2CCN(C)CC2)cc1	7.3	-12.1	-12.0	2427	-9.6	-8.9	-0.4
OC(COCC(F)(F)C(F)(F)C(F)(F)C(F)F)Cn1c2ccc(Cl)cc2c2cc(Cl)ccc21 (stereo not given)	·	·	·	2550	-8.9	-6.6	·
O=C(NCc1cccnc1)c1ccc(Br)s1	3.5	12.7	-0.3	4280	-20.6	-12.2	-2.2
Cc1cc(C(=O)Nc2ccc(C#N)cc2)on1	2.8	11.7	3.1	3856	-25.0	4.7	5.4
Cn1c2ccccc2c2c(C(=O)O)cn(C3CCCC3)c(=O)c21	3.1	1.9	1.0	6149	-4.4	-0.1	4.7
CSc1nc(C)cc(Oc2ccc(=O)n(C)n2)n1	1.3	5.8	4.9	9051	-25.7	17.1	0.8
COc1ccc(C(=O)N2CCN(c3ccccc3OC)CC2)cc1	·	·	·	3736	-10.3	8.0	·
COc1cccc(-c2ccc(SCC(=O)NC3CCCC3)nn2)c1	-2.8	5.7	6.8	5547	-26.8	-2.6	1.7
Cc1c(C(Nc2ccccn2)c2ccccc2)c(=O)n(-c2ccccc2)n1C (stereo not given)	7.9	·	·	3794	-4.1	1.7	-3.4
CCOc1ccc(NC(=O)CN(C)C(=O)c2c(C)nn(-c3ccccc3)c2Cl)cc1OCC	4.3	-1.2	5.9	5099	-15.7	11.1	12.7
Cc1cc(C(=O)COC(=O)Cc2ccc(Cl)cc2)c(C)n1C	6.4	11.3	5.2	2867	-4.8	·	12.1
COc1ccc(N(CC(=O)NCCSc2ccccn2)S(=O)(=O)c2ccccc2)c(OC)c1	2.2	-9.7	0.6	3923	-2.9	-8.5	8.3
Nc1ncc(-c2ccccc2)c(-c2ccc(O)cc2O)n1	-2.0	0.9	5.6	3340	-2.7	-4.1	-4.8
CCOC(=O)C1CC(CN2C(=O)c3ccccc3C2=O)OC1=O (stereo not given)	-2.4	-7.5	3.4	3811	-12.4	·	-3.3
CCCCNC(=O)C1COc2ccccc2O1 (stereo not given)	-3.2	·	·	8079	-18.8	-5.5	-0.5
CC(C)(C)C(=O)N1CCN(c2ncnc3scc(-c4ccccc4)c23)CC1	0.7	6.2	4.7	4073	-19.7	5.2	-3.9
CC(CN1C2=NCC(C)N2CC1Cc1ccc(O)cc1)NC(=O)CCC1CCCCC1 (stereo not given)	-0.6	-4.2	10.3	·	·	·	-3.5
CCc1nc(CN2CCCC(C(=O)c3ccc4c5c(cccc35)CC4)C2)c(C)[nH]1 (stereo not given)	-0.7	3.4	18.0	2443	-3.5	-5.1	-7.1
COc1ccc(N(CC(=O)NC2CCCC2)C(=O)Cn2nnc(-c3ccc(C)cc3)n2)cc1	0.4	-4.6	-7.1	8136	-7.8	-10.8	-20.7
CC(=O)c1ccc(Oc2ncnc3sccc23)cc1	7.3	18.3	8.4	4472	-44.7	·	0.8
CCOc1ccccc1N(C(=O)c1snc(C(N)=O)c1N)C(C(=O)NC1CCCC1)c1ccco1 (stereo not given)	3.9	5.1	5.3	10259	·	-16.2	1.8
Cc1ccccc1NC(=O)c1ccc2c(c1)C(=O)N(CC(C)C)C2=O	2.3	1.1	1.5	3626	-21.1	-17.7	1.6
O=C(COC(=O)C1CCC1)NCc1ccc(Cl)cc1Cl	3.2	1.6	-2.0	?	-24.4	1.2	2.8
CN(C)CCN1C(=O)C(=O)/C(=C(/O)c2ccc3c(c2)OCCO3)C1c1ccccn1 (stereo not given)	4.9	8.2	-3.5	4677	-19.1	-2.1	5.4
OCCC1CN(Cc2nc(-c3ccc(F)cc3)cs2)CCN1CCc1ccccc1 (stereo not given)	-1.2	-5.2	9.6	2090	-12.3	5.6	-0.6
COc1ccc(-c2csc(NC(=O)c3ccccc3F)c2C(=O)O)cc1	13.1	4.7	6.1	3814	-23.0	-11.7	-3.5
O=C(Nc1ccc(Br)cc1)c1ccc(F)c(S(=O)(=O)NCc2cccs2)c1	-4.6	4.0	8.8	2572	-13.3	4.2	-15.1
COC(=O)c1ccc(CNC(=O)Cn2cnnn2)cc1	1.6	0.0	-0.3	3617	-19.0	0.8	4.9
Cc1ccnc(SCc2ccc([N+](=O)[O-])cc2)n1	5.7	6.0	2.9	4482	-15.4	4.7	3.7
CN1C(=O)Cc2cc(S(=O)(=O)N3CCN(c4ccc(Cl)cc4)CC3)ccc21	1.4	-0.6	-5.0	5703	-2.1	-6.0	1.6
Cc1ccc(C)c(OCC(=O)NNC(=O)C2CC2)c1	1.5	13.1	0.5	4853	-20.7	0.8	0.2
Cc1ccc(/C=c2\sc3nc(-c4ccco4)nn3c2=O)o1	·	·	·	4800	-6.2	-5.5	·
O=c1c2ccccc2sn1-c1cc(S(=O)(=O)N2CCOCC2)ccc1N1CCOCC1	2.8	9.5	5.7	9835	-17.3	0.5	-2.3
C/C(=N\NC(=O)c1ccoc1C)c1ccc(Br)s1	·	·	·	5758	-32.2	-2.7	·
CN1C[C@@H]2C[C@@H](c3cccn3-c3ccccn3)N3CCC[C@@]23C1=O	3.3	-3.9	2.5	4496	-19.7	1.0	4.8
CN(C)C(CNC(=O)C1CCCN(C(=O)c2ccc(Cl)cc2)C1)c1ccco1 (stereo not given)	-1.2	2.0	-5.1	4687	3.2	·	4.9
NC(=O)C1CCN(Cc2cccc(OCc3ccccc3)c2)CC1	1.9	11.5	3.7	4639	-31.1	-7.8	8.7
N#Cc1ccc(CSCC(=O)O)cc1	4.6	15.7	4.7	11098	-25.1	2.8	8.5
Cc1ccc(C(=O)C=CNCc2ccccc2)cc1	5.1	4.4	1.8	·	·	·	10.4
CCOC(=O)CC1C(=O)NCCN1C1CCCC1 (stereo not given)	2.2	-23.3	-14.7	4030	-13.2	-2.9	0.8
CN(Cc1ccc(F)cc1)C(=O)c1cccc(S(=O)(=O)N2CCN(Cc3ccccc3)CC2)c1	7.5	7.6	-3.0	4392	-101.6	4.3	17.6
CC(c1ccccc1)N1CC(C(=O)NC2CCCC2)CC1=O (stereo not given)	9.4	9.3	4.3	5634	-17.2	-6.1	1.5
COc1cc2nc(SCC(N)=O)n(CCC3=CCCCC3)c(=O)c2cc1OC	7.5	0.0	-0.1	9825	-12.5	9.0	-4.7
O=C(O)C1CCCCC1C(=O)Nc1cc(Cl)ccc1Cl (stereo not given)	11.6	5.4	4.3	·	·	-22.3	-5.4
COc1ccc(-c2oc3cc(OC(C)=O)cc(OC(C)=O)c3c(=O)c2OC)cc1	2.5	22.4	9.4	4152	-26.9	·	79.3
CC(C)c1ccc(OCC(=O)NN2C(=O)c3ccccc3C2=O)c(Br)c1	1.0	11.9	-1.0	3652	-21.0	-4.5	-7.8
O=C(COc1cc2oc(=O)c3c(c2cc1Cl)CCC3)NCc1ccccn1	-2.5	-1.4	2.9	5131	1.1	10.5	-2.9
O=C(CCNC(=O)c1ccc(Cl)cc1)Nc1ccncc1	5.0	5.5	5.9	5503	-13.8	5.3	9.1
O=C(CNC(=O)c1ccc2c(c1)OCCO2)NN=Cc1ccc(O)cc1O	7.0	0.4	-6.1	·	·	·	8.5
Cc1cc(C(C)(C)C)oc1C(=O)Nc1ccc(CC(=O)O)cc1	-7.6	5.5	6.6	2497	-2.8	8.7	-5.3
CCOC(=O)C1=C(c2ccccc2)NC(=O)NC1c1ccc(OC)c(OC)c1 (stereo not given)	0.3	6.9	1.5	4201	-14.7	20.5	2.8
CSCCC(NS(=O)(=O)/C=C/c1ccccc1)C(=O)NCCc1ccc(S(N)(=O)=O)cc1 (stereo not given)	0.6	3.8	-0.8	3820	-15.9	9.0	1.4
C=CCSc1nccc(=O)[nH]1	2.9	4.3	1.5	7735	-18.8	0.1	1.8
Cc1ccc(NC(=O)CSCC(=O)NCc2ccco2)cc1	0.2	6.6	3.4	?	-18.6	9.6	4.6
CCC1(C)Cc2c(sc3nc(SC)n(Cc4ccccc4)c(=O)c23)CO1 (stereo not given)	28.6	·	·	2780	-34.4	0.4	19.0
Cc1ccc(-c2nnc3sc(-c4ccncc4)nn23)cc1	7.4	-9.1	-7.7	12741	-13.8	1.4	4.7
CCCCn1c(O)c(/C(C)=N/NC(=O)Nc2ccccc2)c(=O)[nH]c1=O	2.6	3.8	9.7	3821	-16.2	1.4	0.6
Additional compounds follow.
SMILES	RN4220 kill	Mtb hypoxia rep	Mtb hypoxia rep growth	Autofluor counter	PrP 5UTR inh	BJeLR viability	ugtP null kill
O=C1CC(CSc2ccc(Cl)cc2)=NN1	1.9	11.1	7.8	·	-9.5	-4.5	0.0
COc1cccc(/C=N/NC(=O)CO/N=C(\C)c2cccs2)c1OC	·	·	·	7915	-19.9	-1.3	·
O=C(Nc1ncc(Cc2cccc(C(F)(F)F)c2)s1)c1ccc(-c2cccc([N+](=O)[O-])c2)o1	18.3	-7.5	-9.9	8920	-2.5	3.5	-5.7
CCCCOc1ccc(CN2CCSCC2)cc1	5.3	-1.7	1.0	3921	-10.6	0.2	7.7
Cc1nn(C)c(C)c1NS(=O)(=O)c1ccc(N2CCCC2=O)cc1	4.0	-4.8	0.9	4516	-21.1	3.1	7.0
O=C(CC(c1ccco1)C1CCCCC1=O)c1ccco1 (stereo not given)	-14.4	13.9	8.0	3755	0.8	-3.3	-4.1
COc1ccc(N(CC(=O)NCCSCc2c(F)cccc2Cl)S(C)(=O)=O)cc1OC	3.1	2.5	8.2	10010	-12.6	3.7	-2.6
Cc1csc(NC(=O)[C@@H]2CCCN2C(=O)c2cccs2)n1	5.7	0.1	0.5	3576	-7.2	-3.0	6.8
Cc1ccc(SC(=O)COc2ccccc2C)cc1	6.4	10.2	9.7	2960	8.4	-4.0	0.3
Cc1cc(C(F)(F)F)nc2c(Cl)c(C(C)(C)C)nn12	4.8	13.8	6.0	·	·	-2.2	1.4
O=C(NCc1nc2ccccc2[nH]1)C1=C[C@H](c2ccccc2)C[C@H](OCCCCO)O1	·	·	·	4001	-9.7	17.9	·
O=C(CCCn1cc([N+](=O)[O-])cn1)Nc1cccnc1	4.8	13.4	-1.7	4547	-20.3	-2.1	-3.4
CC1CCCC(C)N1C(=O)COC(=O)/C=C/c1ccco1 (stereo not given)	1.3	2.2	9.5	3606	-13.9	·	1.6
O=C(Nc1ccc(N2CCCC2)c(Cl)c1)c1cccc(-c2cc3ccccc3oc2=O)c1	2.5	-2.5	11.7	2459	-17.3	4.6	-4.8
O=C(CN1C(=O)COc2ccc(Cl)cc21)Nc1ccc(N2CCOCC2)cc1	-5.5	-5.6	-1.1	5646	1.1	4.1	7.6
O=C(CN1CCN(S(=O)(=O)N2CCCCCC2)CC1)Nc1ccc(Br)cc1	-0.6	6.8	9.7	6189	-11.7	7.6	-0.1
CCOC(=O)c1nc2cc3n(c(CC(C)C)c-2c1C)CC(C)=C3C	6.1	-1.2	13.1	11347	-11.8	-9.7	-14.9
CN(CC(=O)Nc1c(Cl)cccc1Cl)C(=O)c1ccc2nc[nH]c2c1	2.2	-0.5	9.8	5769	-4.4	-2.3	-0.7

Screens deposited in PubChem BioAssay by several laboratories.
